AF4-AF9 inh = inhibitors of AF4 peptide binding to AF9, primary screen, biochemical, AlphaScreen, biotin-AF4 peptide, FLAG-AF9, single point. inhibition, % at 10 µM. 350,000 compounds, 0.47% hits. Protein AF-9 (Homo sapiens), P42568;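 active = every replicate reaching a set inhibition limit, whatever the replicate mean, cut at about 25% in these data; inconclusive = mean inhibition reaches that limit but some replicates miss it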;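 note: 0% = plate neutral control median and 100% = total signal loss; the record names both 10 and 1 µM as test concentration; the first replicate is given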
Vif TR-FRET = inhibitors of Vif binding to APOBEC3G peptide, primary screen, biochemical, TR-FRET, GST-Vif 1-94, biotin-A3G peptide, dose response retest (AID 1117319) | one-dose inhibition, %; IC50 in µM for titrated hits | 260,000 compounds, 0.57% hits | Virion infectivity factor (Human immunodeficiency virus type 1 group M subtype B (isolate … | TR-FRET GST-Vif / biotin-A3G peptide binding; higher % means a stronger effect; test concentration not given here; strong numbers were not always called active;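 active = above the screen mean plus three standard deviations and confirmed in dose response; inconclusive = results disagree or hit not tested in dose response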;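 note: Vif residues 1-94 fused to GST binding biotinylated APOBEC3G peptide 110-148; 0% = full assay without inhibitor and 100% = GST in place of GST-Vif; retest series ran down from 100 µM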
FGF22 binding = binders of human FGF22 protein, primary screen, FGF22 synaptogenesis inhibitor project, biophysical, thermal shift, single point; Fibroblast growth factor 22 (Homo sapiens), Q9HCT0; recombinant FGF22 thermal shift, SYPRO orange fluorescence; percent of sucrose octasulfate shift, DMSO zero; calls only at 9.99 µM; 340,000 compounds, 1.5% hits; AID 651658, 2012;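 active = melting point raised past a set limit in the mean and every replicate; inconclusive = no clear call; three in four hits are not shown here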
Target sequence (Q9HCT0 whole entry, looked up): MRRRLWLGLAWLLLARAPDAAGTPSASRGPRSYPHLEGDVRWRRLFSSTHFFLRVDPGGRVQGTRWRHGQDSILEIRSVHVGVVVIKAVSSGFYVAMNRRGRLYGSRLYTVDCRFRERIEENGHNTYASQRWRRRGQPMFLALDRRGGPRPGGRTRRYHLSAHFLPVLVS
ALR inh = inhibitors of human ALR sulfhydryl oxidase, primary screen, biochemical, H2O2 detection, HRP-luminol luminescence, single point; FAD-linked sulfhydryl oxidase ALR (Homo sapiens), P55789; AID 485317, 2010; 290,000 compounds, 3.8% hits; inhibition, % (no concentration beside the values); purified ALR, DTT oxidation;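 active = mean and each replicate at 75% or more; inconclusive = only one of the two met; inactive = neither met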;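 note: stock transfer was 7.5 nL into about 7.5 µL; 0% = neutral wells and 100% = wells with inactivated enzyme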
Target sequence (P55789 whole entry, looked up): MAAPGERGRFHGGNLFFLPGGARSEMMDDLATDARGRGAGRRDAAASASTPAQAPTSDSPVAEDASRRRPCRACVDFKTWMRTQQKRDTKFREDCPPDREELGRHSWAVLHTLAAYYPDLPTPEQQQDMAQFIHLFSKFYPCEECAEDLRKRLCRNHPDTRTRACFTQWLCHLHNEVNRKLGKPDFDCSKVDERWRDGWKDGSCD
Ecoli growth = E. coli growth inhibition, primary screen, OD600 | Escherichia coli growth, 23 h; hits give low values | OD600 absorbance (no concentration beside the values) | 330,000 compounds, 0.21% hits;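 active = OD600 absorbance below the run mean of sample wells minus 3.6 SD, in any replicate, cut at about 0.56 in these data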;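 note: stock transfer was 300 nL into about 60 µL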
Ecoli rRNA inh = reduced GFP signal of wild-type E. coli, primary screen, bacterial rRNA inhibitor project, GFP/RFP fluorescence, OD600, single point. E. coli WT GFP vs humanized-ribosome RFP mutants, 24 h; hits give low values; DMSO median 0, no signal -100. GFP signal change (wild-type ribosome), % (test concentration not listed). 350,000 compounds, 1.6% hits. AID 720706, 2013;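 active = significant combined selectivity score with lowered wild-type GFP, culture density cut under 30%, mutant RFP and density less affected; inactive = any of these conditions unmet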; note: one replicate is shown; some compounds called inactive have numbers as strong as hits
HNF4A DNA FP = change in binding of human HNF4A to DNA, primary screen, biochemical, fluorescence polarization, FITC-DNA; AID 1224865, 2016; activity change, % at 10 µM; Hepatocyte nuclear factor 4-alpha (Homo sapiens), P41235; 360,000 compounds, 0.3% hits; 1 h; in the data active = activity change above about 30%, passing the limit was not always enough;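 note: controls were the assay level and a saturating level of protein; the project sought stronger binding though the title names inhibitors; some compounds called inactive have numbers as strong as hits; positive values seem to mean higher polarization but the record does not say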
Target sequence (P41235 whole entry, looked up): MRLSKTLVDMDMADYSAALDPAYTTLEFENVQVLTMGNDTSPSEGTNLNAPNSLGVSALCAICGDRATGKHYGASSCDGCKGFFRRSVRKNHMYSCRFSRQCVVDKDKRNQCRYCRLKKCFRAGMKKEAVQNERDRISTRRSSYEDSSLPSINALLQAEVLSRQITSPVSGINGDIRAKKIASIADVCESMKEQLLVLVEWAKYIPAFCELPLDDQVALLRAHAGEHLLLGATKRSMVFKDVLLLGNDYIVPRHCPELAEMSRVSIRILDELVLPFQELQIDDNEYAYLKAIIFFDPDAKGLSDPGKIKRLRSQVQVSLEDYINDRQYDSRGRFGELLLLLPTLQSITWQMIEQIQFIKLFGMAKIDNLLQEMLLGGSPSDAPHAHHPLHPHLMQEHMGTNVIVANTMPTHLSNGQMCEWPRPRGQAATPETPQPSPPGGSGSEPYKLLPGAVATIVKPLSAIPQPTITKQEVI
Ecoli rRNA inh OD600 = also measured in Ecoli rRNA inh; calls as there; OD600 change, %; measured here: OD600 growth;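 optical density of the mix in the first replicate; 0 = DMSO median and -100 = no signal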
Ecoli rRNA inh RFP = further read-out of Ecoli rRNA inh, marked with its call; RFP signal change, %; measured here: RFP humanized mutant strains;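 first replicate; 0 = DMSO median and -100 = no signal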
* hit, by the source's call; i = inactive; ? = inconclusive; nt = not tested or not shown; + = active, no number. Not all compounds are listed, so the mix of outcomes need not match the whole.

smiles	Ecoli growth	HNF4A DNA FP	ALR inh	Ecoli rRNA inh RFP	Ecoli rRNA inh OD600	FGF22 binding	Ecoli rRNA inh	AF4-AF9 inh	Vif TR-FRET
COc1ccccc1NC(CC(=O)c1ccccc1)C(=O)OCC(=O)c1ccc(C)cc1 (configuration not stated)	0.66	-2.4	-2	-13	6	i	-2	?	11%
CSC1=N/C(=C\c2ccc(F)cc2)C(=O)S1	0.76	-0.5	nt	nt	nt	nt	nt	nt	0%
O=c1[nH]c(N/N=C/c2ccccc2)nc2ccccc12	nt	0.5	72	nt	nt	nt	nt	nt	11%
CCn1c(C)nnc1SCC(=O)Nc1ccc(C(C)=O)cc1	0.67	-1.3	-1	6.2	30	i	22	0.3	nt
Cn1c(=O)c2c(ncn2CC(=O)N(Cc2ccccc2)c2ccccn2)n(C)c1=O	0.73	0.2	-6	nt	nt	nt	nt	nt	-18%
CC(=O)N1CCc2cc([N+](=O)[O-])ccc21	0.67	-5.4	nt	-2.0	5	i	-9	-3.0	-4%
CN(c1ccc(C(=O)NCc2ccccn2)cc1)S(C)(=O)=O	0.69	-0.4	-1	nt	nt	nt	nt	nt	1%
O=C(c1ccncc1)N1c2ccccc2Sc2ccccc21	nt	2.8	-12	-1.8	-7	i	-6	1.5	12%
C[C@@H]1CN([C@H](C)CO)S(=O)(=O)c2ccc(C#CCC3CCCC3)cc2O[C@@H]1CN(C)C(=O)c1cnccn1	nt	nt	nt	-1.7	-8	i	-3	-0.3	nt
O=C1CCN(C(=O)CSc2ccc(Cl)cc2)N1	0.66	4.8	-16	-1.0	3	i	2	-3.9	-1%
COc1ccc(CN2CCNC(=O)C2CC(=O)NC2CCCCCC2)cc1C (configuration not stated)	0.65	3.9	8	0.8	-13	i	-6	5.4	-4%
Cc1ccc(CSc2nsc(C)c2C#N)cc1	0.66	3.1	nt	-1.2*	-7.0*	i	-24*	-2.6	-2%
COc1ccc(S(=O)(=O)N2CC[C@@H]3[C@H](CO)N(C)c4ccc(-c5ccc(F)cc5)cc4[C@@H]32)cc1	nt	nt	nt	2.6	0	i	-1	-3.3	nt
O=C(CN1CCCCC1)N1CCc2ccccc21	0.69	-0.4	1	6.5	4	i	13	-3.2	nt
CC(/C=C1\SC(=S)N(NC(=O)c2cccc(O)c2)C1=O)=C\c1ccccc1	0.67	-0.7	-2	-9.3	-76	nt	-52	6.3	?
C[C@@H]1CCCCO[C@@H](CN(C)S(=O)(=O)c2cn(C)cn2)[C@H](C)CN([C@@H](C)CO)C(=O)c2cc(NC(=O)c3ccccc3)ccc2O1	nt	nt	nt	-1.1	-1	i	0	-2.2	nt
O=C(CN1C(=O)CCC1=O)Nc1nc(-c2cccs2)cs1	0.67	-1.9	2	nt	nt	nt	nt	nt	19%
Cc1cc(=O)oc2cc(OCC(=O)OCC(=O)NC3CC3)ccc12	0.67	2.0	-5	-2.0	11	i	9	0.0	-11%
CC1(C)CC(=O)C=C(c2n[nH]nc2C2CC2)C1	nt	-1.0	nt	-0.5	-4	i	-1	0.6	5%
C[C@@H]1CN([C@@H](C)CO)C(=O)Cc2cc(NC(=O)Nc3cccc4ccccc34)ccc2O[C@H]1CN(C)C(=O)Nc1cccc2ccccc12	nt	nt	nt	1.5	-1	i	-4	-1.7	nt

Later entries:
smiles	Ecoli growth	HNF4A DNA FP	ALR inh	Ecoli rRNA inh RFP	Ecoli rRNA inh OD600	FGF22 binding	Ecoli rRNA inh	AF4-AF9 inh	Vif TR-FRET
O=C(Nc1ccon1)c1nc[nH]c1C(=O)N1CCN(c2ccccc2)CC1	0.67	3.9	45	-0.2	19	i	0	0.5	nt
Cc1ccc(/C=C/C(=O)Nc2ccccc2C(N)=O)cc1	0.67	0.9	nt	nt	nt	nt	nt	nt	9%
CSc1ccccc1OCc1cc(C(=O)NCCn2ccnc2C)no1	0.62	4.8	3	-0.2	-5	i	-2	2.8	2%
NS(=O)(=O)c1ccc(NC(=O)COC(=O)C2(c3ccc(F)cc3)CCCC2)cc1	0.72	1.8	-15	14	9	i	-1	8.9	-14%
CCCOc1ccccc1/C=N/NC(=O)C1CC1	nt	2.6	-7	0.6	14	i	4	1.9	nt
Cn1nnc2cc(C(=O)Nc3ccccc3F)ccc21	0.69	-3.0	-2	2.4	14	i	4	-0.9	nt
C[C@H]1CN([C@@H](C)CO)C(=O)c2cc(NS(=O)(=O)c3ccccc3)ccc2O[C@@H]1CN(C)Cc1ccc(C(=O)O)cc1	nt	nt	nt	0.3	16	+	6	-0.6	nt
Cc1ccc(-c2cc(C(=O)NCc3ccccn3)c3ccccc3n2)cc1	0.69	-2.2	-4	nt	nt	nt	nt	nt	7%
CN(C)C1=NCCN1CCCC1CCCCC1	0.67	-3.0	14	2.1	1	i	14	2.6	nt
CC(=O)c1ccc(NS(=O)(=O)c2ccc3ccccc3c2)cc1	0.67	-0.3	0	nt	nt	nt	nt	nt	-3%
CNCCCC1Sc2ccccc2Oc2ccccc21 (configuration not stated)	0.67	2.7	1	nt	nt	nt	nt	nt	1%
CCOc1ccc(Cc2n[nH]c(=S)n2N)cc1	0.6	1.1	96*	nt	nt	nt	nt	nt	-1%
Fc1ccc(CO/N=C/C2=C(Cl)c3ccccc3CC2)cc1	nt	0.7	2	nt	nt	nt	nt	nt	-1%
N#Cc1ccccc1Cn1cc(/C=C/[N+](=O)[O-])c2ccccc21	0.67	1.9	15	-2.8	-1	i	-13	4.5	?
O=C1Nc2cc(C(=O)N3CCOCC3)ccc2S/C1=C/c1ccccc1F	nt	0.2	nt	2.1	-11	i	-7	-2.7	1%
O=c1c2c3c(sc2nc2n1CCC2)CCCC3	0.68	2.7	2	-1.2	1	i	-3	2.5	-6%
COc1ccc(C2(C)C(C#N)C(=O)NC(=O)C2C#N)cc1 (configuration not stated)	nt	-1.5	nt	-1.5	7	i	3	0.8	-7%
COC(C[C@@H](O)CC(=O)[C@H](C)OCc1ccccc1)OC	nt	-0.8	nt	-8.7	2	i	12	3.0	nt
CCc1ccc(-n2c(=O)c3ccccc3n3c(=S)[nH]nc23)cc1	0.67	-1.9	nt	2.0	17	i	14	-3.5	-10%
O=C(NCC[C@@H]1CC[C@@H](NS(=O)(=O)c2ccccc2)[C@H](CO)O1)c1ccccc1F	nt	nt	nt	-1.0	-4	i	-1	-1.4	nt

Some of these compounds in order of length of the SMILES, rising:
smiles	Ecoli growth	HNF4A DNA FP	ALR inh	Ecoli rRNA inh RFP	Ecoli rRNA inh OD600	FGF22 binding	Ecoli rRNA inh	AF4-AF9 inh	Vif TR-FRET
CN(C)C1=NCCN1CCCC1CCCCC1	0.67	-3.0	14	2.1	1	i	14	2.6	nt
CNCCCC1Sc2ccccc2Oc2ccccc21 (configuration not stated)	0.67	2.7	1	nt	nt	nt	nt	nt	1%
O=c1c2c3c(sc2nc2n1CCC2)CCCC3	0.68	2.7	2	-1.2	1	i	-3	2.5	-6%
CC(=O)c1ccc(NS(=O)(=O)c2ccc3ccccc3c2)cc1	0.67	-0.3	0	nt	nt	nt	nt	nt	-3%
O=C1Nc2cc(C(=O)N3CCOCC3)ccc2S/C1=C/c1ccccc1F	nt	0.2	nt	2.1	-11	i	-7	-2.7	1%
O=C(NCC[C@@H]1CC[C@@H](NS(=O)(=O)c2ccccc2)[C@H](CO)O1)c1ccccc1F	nt	nt	nt	-1.0	-4	i	-1	-1.4	nt
C[C@H]1CN([C@@H](C)CO)C(=O)c2cc(NS(=O)(=O)c3ccccc3)ccc2O[C@@H]1CN(C)Cc1ccc(C(=O)O)cc1	nt	nt	nt	0.3	16	+	6	-0.6	nt

New compounds follow
smiles	Ecoli growth	HNF4A DNA FP	ALR inh	Ecoli rRNA inh RFP	Ecoli rRNA inh OD600	FGF22 binding	Ecoli rRNA inh	AF4-AF9 inh	Vif TR-FRET
CCOc1ccc(NC(=O)C2CCN(c3nnnn3-c3ccccc3)CC2)cc1	0.71	-2.5	-2	nt	nt	nt	nt	nt	22%
CCN(C(=O)c1c(OC)cccc1OC)c1nnc(-c2cccnc2)s1	0.67	4.7	4	nt	nt	nt	nt	nt	7%
COc1ccc(NC(=O)N(C)C[C@@H]2Oc3ccc(NC(=O)Nc4ccccc4)cc3C(=O)N([C@@H](C)CO)C[C@H]2C)cc1	nt	nt	nt	-2.1	2	i	1	-0.5	nt
CNC[C@H]1Oc2c(NS(C)(=O)=O)cccc2C(=O)N([C@@H](C)CO)C[C@H]1C	nt	nt	nt	-2.3	7	i	3	-1.9	nt
CCOC(=O)C1CCCN(CCC(=O)Nc2ccccc2C)C1 (configuration not stated)	0.7	-6.5	nt	0.4	8	i	12	-0.3	8%
COc1ccc(NC2CCCN(C(=O)C3(C)CCCCC3)C2)cc1 (configuration not stated)	0.67	0.9	97*	0.6	-12	i	-9	5.5	-1%
C[C@H](O)C#Cc1ccc2c(c1)O[C@H](CN(C)Cc1ccccc1)[C@H](C)CN([C@@H](C)CO)S2(=O)=O	nt	nt	nt	1.6	6	i	-1	-2.0	nt
CCCCn1nc2cc(C(=O)NCC34CC5CC(CC(C5)C3)C4)ccc2c1OCC	0.73	-0.9	5	12	-25	i	-3	2.8	-6%
CCCn1nc(C(=O)NNC(=O)c2ccc(C)c(C)c2)c2ccccc2c1=O	nt	0.4	-9	-2.8	-24	i	-9	-3.9	-15%
O=C(C[C@@H]1CC[C@@H]2[C@H](COC[C@H](O)CN2S(=O)(=O)c2ccc(F)cc2)O1)NCc1ccncn1	nt	nt	nt	-0.8	3	i	3	-2.1	nt

3 consecutive records already listed, quoted:
smiles	Ecoli growth	HNF4A DNA FP	ALR inh	Ecoli rRNA inh RFP	Ecoli rRNA inh OD600	FGF22 binding	Ecoli rRNA inh	AF4-AF9 inh	Vif TR-FRET
COc1ccccc1NC(CC(=O)c1ccccc1)C(=O)OCC(=O)c1ccc(C)cc1 (configuration not stated)	0.66	-2.4	-2	-13	6	i	-2	?	11%
CSC1=N/C(=C\c2ccc(F)cc2)C(=O)S1	0.76	-0.5	nt	nt	nt	nt	nt	nt	0%
O=c1[nH]c(N/N=C/c2ccccc2)nc2ccccc12	nt	0.5	72	nt	nt	nt	nt	nt	11%
